LANA-nucl inh = LANA-nucleosome interaction inhibition | FITC-LANA1-23 / chicken nucleosome fluorescence polarization; active compounds read low | z-score (concentration not given with the values) | actives 0.3% (n = 51,000) | AID 720717;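 active = both repeat wells score below -2 in polarization z-score versus plate sample wells, excluding overly bright wells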;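 note: 100 nL library stock added to about 30 µL; numbers are from one replicate; some results filed as inactive read as strong as hits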
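Test system: purified chicken nucleosomes with FITC-labelled LANA N-terminal peptide (1-23); Input: 240 nM purified chicken nucleosomes (480 nM peptide binding sites), final; Medium: TEN-BT buffer, pH 7.5; Timing: 10–45 min, room temperature; Technique: fluorescence polarization, 480 nm excitation, 535 nm parallel and perpendicular emission; Replication: duplicates.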
BasE inh = blocks the Acinetobacter baumannii siderophore enzyme BasE; purified BasE, fluorescence polarization binding displacement; inhibition, % (concentration not given with the values); actives 0.1% (n = 84,000); AID 485350;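 active = both replicates above 25% with normal brightness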;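 note: 0% = negative plate control signal and 100% = positive plate control signal; stock transfer was 100 nL into about 30 µL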
An asterisk follows results filed as active; x = no result given; & = joins results of further samples. Not all compounds are listed, so the mix of outcomes need not match the whole.

SMILES	LANA-nucl inh	BasE inh
CNC(=O)C1CCN(S(=O)(=O)c2c(C)noc2/C=C/c2ccc(OC)cc2)CC1	0.94	-0.7
C=CCn1c(=S)sc2c(=O)n(CC(=O)Nc3ccc(F)cc3)cnc21	x	1.5
CC(c1ccccc1)N1CC(C(=O)Nc2sccc2C#N)CC1=O (stereo not given)	x	-3.7
CC(C)CN1Cc2cccc(C(=O)O)c2C1=O	-1.1	-0.4
CCSc1cnn(C2CCCCC2)c(=O)c1Cl	1.8	-3.9
CCSc1nnc(NC2=NCCC2)s1	x	0.7
CCOC(=O)CC1Sc2ccccc2N=C1SCC(=O)Nc1cccc(C(F)(F)F)c1 (stereo not given)	x	-0.5
COc1cccc(NC(N)=O)c1	x	3.0
Cc1ccc(NC(=O)Cc2n[nH]c(=O)c3ccccc23)c(O)c1	x	0.9
CCCNC(=O)CCn1nc(C)c2c(C)n(-c3ccccc3)nc2c1=O	x	-2.2
CCC(C)(C)NC(=O)Cc1ccc(F)cc1	-0.23	2.3
COc1ccc(S(=O)(=O)Nc2ccc(C(=O)NCC(=O)O)cc2)cc1	x	2.0
CC(C)(C)c1cc(NC(=O)c2ccc3c(c2)S(=O)(=O)c2ccccc2C3=O)on1	x	-5.1
CN(C(=O)c1cccc(N)c1)C1CCCCC1	-0.1	-1.9
CC1CN(C(=O)c2ccc(C#N)cc2)CC(C)O1 (stereo not given)	x	2.8
CC(=O)SCC(C)C(=O)O (stereo not given)	-0.37	1.6
CCOc1ccc(C(=O)NCC(=O)n2nc(C)cc2C)cc1	x	1.7
O=C1CN(C(=O)COc2ccccc2)c2ccccc2N1	-0.72	2.6
O=C1CN(c2ccc(OC(F)(F)F)cc2)C(=O)CN1CC1CC1	-0.44	4.5
COC(=O)c1cn(CCC#N)nc1-c1ccc2ccccc2c1	-0.33	-12
C=CCN(CC=C)C(=O)CSc1nnnn1-c1ccc(C)cc1C	x	-0.2
COc1ccc(OCCN(C)C(=O)c2cccc3cccnc23)cc1	x	1.9
Cc1onc(-c2c(Cl)cccc2Cl)c1C(O)c1ccc(F)cc1 (stereo not given)	x	3.0
O=C(NCc1ccc(S(=O)(=O)NCCN2CCCC2)s1)c1ccc(Cl)cc1	x	-4.1
CC(Oc1ccccc1F)C(=O)N/N=C/c1cnn(-c2ccccc2)n1 (stereo not given)	x	-2.1
Cc1c(N)c(C)c(N)c(C)c1N	-0.029	1.4
N#CC(C#N)=C(N)CSc1ccc(Cl)cc1	-1	x
NC(=O)COC(=O)CCc1nc2ccccc2s1	x	-0.5
Cc1cc(C(=O)CSc2nnc(NC3CC3)s2)c(C)s1	x	0.9
C=CCn1c(COc2ccc(CC)cc2)nnc1SCC(=O)c1cc(C)n(CCOC)c1C	x	-1.1
O=C(NCc1cccs1)C1=CC=CN2CCS(=O)(=O)N=C12	x	1.4
NC(=O)C1CCCN(S(=O)(=O)c2ccccc2)C1 (stereo not given)	-0.47	2.7
COc1ccc(CN(C)c2nc(-c3cccnc3)nc3ccccc23)cc1OC	x	2.6
O=C(Nc1ccc(-n2cnnn2)cc1)c1ccc(S(=O)(=O)N2CCCc3ccccc32)cc1	x	-0.4
O=c1[nH]cnc2sc3c(c12)CCC3	x	-0.1
Oc1c(I)cc(I)c2cccnc12	0.22&0.44	-1.2
O=S(=O)(NC1=NCCS1)c1ccc(N=NN2CCCCC2)cc1	0.77	-1.9
CCc1ccc(-c2cc(C)no2)cc1S(=O)(=O)NCc1cccs1	x	0.6
Cc1ccc(-n2ncc3c(SCC(=O)NC(C)C)ncnc32)c(C)c1	1.9	-2.8
c1csc(Cc2nnc(SCc3cn4ccsc4n3)n2C2CCCCC2)c1	x	-0.2
CC(=Nc1ccccc1C(F)(F)F)c1cccs1	x	1.1
CC(C)NS(=O)(=O)c1ccc(OCC(=O)N2CCC(Cc3ccccc3)CC2)cc1	x	0.9
CCOC(=O)CN=Cc1c(O)[nH]c2ccccc12	0.57	-1.2
CC1CN(C2=NC(=O)/C(=C\c3ccccc3)S2)CC(C)O1 (stereo not given)	-0.55	4.6
CCOc1ccc(NC(NC(=O)c2cccs2)C(=O)c2ccccc2)cc1 (stereo not given)	x	-0.7
COCCn1c(=NC(=O)CSC(C)=O)sc2cc(OC)ccc21	-0.99	1.1
COc1ccc(-n2ccn(CC(=O)Nc3ccccc3)c(=O)c2=O)cc1	0.68	-0.6
Cc1cc(C)n2cc(CNc3ccc(N4CCCC4=O)cc3)nc2n1	x	-1.0
CCOC(=O)c1oc2c(c1C)/C(=N/O)CCC2	-0.85	0.5
Cc1c(-c2ccnn2C(=O)Nc2ccccc2)sc2ccccc12	x	1.6
O=C(ON1C(=O)CCC1=O)c1ccc(Cl)cc1Cl	-0.22	0.2
Cc1ccc(NC(=O)c2ccc3nc[nH]c3c2)c(O)c1	x	-1.3
O=C(O)c1ccc(S(=O)(=O)N(Cc2ccco2)CC2CCCO2)cc1 (stereo not given)	x	4.3
CC(C)[C@@H](C(=O)OCc1cc(=O)n2ccsc2n1)N1C(=O)c2ccccc2C1=O	x	1.1
O=C(CCc1ccc(S(=O)(=O)N2CCOCC2)cc1)NCC(F)(F)F	x	1.4
CCN(CC)C(=O)CSc1nnc2c(n1)[nH]c1ccc(C(C)C)cc12	1.8	-6.7
COCCN(Cc1nc2ccccc2c(=O)[nH]1)C(=O)Cn1cnc2sccc2c1=O	x	10
CCc1cc2c(COC(=O)c3cccc(NS(C)(=O)=O)c3)cc(=O)oc2cc1O	x	0.5
CCc1ccc2nc(SCC(=O)N(CC)CC)c(C#N)cc2c1	-0.45	-24
CCCc1oc2ccc(NS(=O)(=O)c3ccccc3)cc2c1C(=O)OCC	1.3	0.1
Following part:
SMILES	LANA-nucl inh	BasE inh
N#C/C(=C\c1ccc(OC(=O)c2ccco2)cc1)C(=O)Nc1ccccc1Br	-0.45	-0.3
CCN(C(=O)c1ccc(Br)cc1)c1ccccc1	-0.028	-1.6
CC(C)OC(=O)Cn1nnc(-c2ccccc2)n1	-0.2	1.4
CCn1c(-c2ccccc2)cnc1SCC(=O)c1sc2c(c1C#N)CCCC2	0.52	-0.6
CC(C)(C)c1nnc(Nc2ccc(Cl)c(C(F)(F)F)c2)[nH]c1=O	-0.007	-2.8
O=C(NC(C(=O)O)C12CC3CC(CC(C3)C1)C2)C1CCCCC1 (stereo not given)	0.8	-0.6
CN1C(=O)C(=CN2CCc3ccccc32)C(=O)N(C)C1=O	1.6	-2.1
COc1ccc(C)c2sc(NNC(=O)C3=COCCO3)nc12	-0.47	-7.2
COc1ccc(CNC(=S)N(Cc2nnc(-c3ccccc3Cl)o2)C2CC2)cc1	x	4.3
Cc1ccc(NC(=S)NCC2CCCO2)cc1 (stereo not given)	x	1.9
O=C1/C(=N/NC(=O)C2COc3ccccc3O2)c2cccc3cccc1c23 (stereo not given)	x	-4.9
COC(=O)c1ccc(COC(=O)COc2ccc(C#N)cc2)o1	x	0.7
O=C(Cn1c(N2CCN(c3ccc(F)cc3)CC2)nc2ccccc21)c1ccccc1	x	2.1
CN1C(=O)C(O)N(c2ccccc2)C1=O (stereo not given)	x	-0.1
Fc1ccc(NC(=S)Nc2cc(C(F)(F)F)ccc2N2CCCC2)cc1Cl	x	1.8
O=C(c1ccc(S(=O)(=O)N2CCCc3ccccc32)s1)N1CCCC1	-0.034	-0.4
Cc1cc(C)c(C#N)c(Sc2ncnc3c2sc2nc(C)cc(C)c23)n1	x	-0.9
O=S(=O)(Cc1ccc(Cl)cc1)N1CCc2ccccc2C1	-0.69	x
CCOC(=O)c1sc(NC(=O)CN2C(=O)C3CC=CCC3C2=O)nc1C (stereo not given)	x	2.0
OC(CN1CCCCC1)CN(c1ccccc1)c1ccccc1 (stereo not given)	0.69	0.9
COc1ccc(Br)cc1C(=O)Nc1ccc(NC(=O)c2ccco2)cc1	-0.2	4.1
CSCCC1Oc2ccccc2C2CC(c3ccccc3O)=NN12 (stereo not given)	0.61	0.2
CCCCCCOc1ccc(C(=O)OCC(=O)Nc2c(C)n[nH]c2C)cc1OC	x	2.5
CC(C)(C)C1=CC(=O)C(C(C)(C)C)=CC1=O	x	0.6
Clc1ccc(C2Nc3ccccc3-c3nc(C4CC4)nn32)cc1 (stereo not given)	x	1.1
COc1ccc(C2CC(=O)C=C(NCCC(C)C)C2)cc1 (stereo not given)	1.5	-4.2
O=C(Nc1cccc(-c2nc3ccccc3c(=O)o2)c1)C1CCCCC1	x	2.3
O=C(O)CSc1nc(-c2ccccc2)cc(=O)[nH]1	-0.27	2.1
Cc1cc(OCCCCCn2ccnc2)cc(C)c1Cl	0.033	-2.3
O=C(CC1SC(=NC2CCCC2)NC1=O)NCc1ccc(Cl)cc1 (stereo not given)	x	2.1
Cc1cccc(NC(=O)CCNS(=O)(=O)c2cccc3nonc23)c1C	0.42	0.6
CC1CCCCC1NC(=O)Nc1ccccc1F (stereo not given)	-0.65	2.1
CCOc1ccc(CNC23CN4CN(CN(C4)C2)C3)cc1	-0.17	0.8
CC(=O)Nc1ccc(-c2nnc(-c3ccco3)o2)cc1	-0.92	-0.3
CCC(C)NC(=S)N1CCN(C)CC1 (stereo not given)	-0.29	-1.1
O=C(CN1C(=O)CSC1=O)c1ccccc1	-0.2	-0.4
COc1ccc2nc(SCC(=O)Nc3ccnn3C3CCCC3)[nH]c2c1	x	1.1
CCn1nnc2c(N3CCN(c4ccccc4Cl)CC3)ncnc21	-0.34	0.3
Cc1cc(C)c2c(NC(=O)COc3ccc(Cl)cc3)n[nH]c2n1	x	0.6
O=c1ccc2nc3ccccc3c(=O)n2[nH]1	-0.36	2.8
COc1cc(C(=O)NCc2ccccc2)cc(OC)c1OC	x	2.0
COc1ccc(-c2cc(N)nc(N)n2)cc1	x	1.8
Fc1ccc(CN2CCc3ccccc3C2)cc1Br	-0.64	2.0
Cc1ccccc1-n1nnnc1Sc1nnnn1-c1ccccc1	x	-1.3
O=S(c1c(F)c(F)c(F)c(F)c1F)c1c(F)c(F)c(F)c(F)c1F	-0.59	3.5
O=C(Cc1ccc(S(=O)(=O)N2CCCCC2)s1)N1CCc2ccccc21	x	-0.3
O=C(Nc1ccnn1C1CCCC1)c1ccc2c(c1)CCC2	x	-1.4
CCN(CC)c1ncnc2c1[nH]c1ccc(C)cc12	x	3.1
Oc1cc(-c2nc3ccccc3o2)c(O)cc1-c1nc2ccccc2o1	-0.23	2.8
Nc1cc(C(F)(F)F)ccc1-n1cccn1	x	0.3
CN(Cc1ccccc1)C(=O)CC1(CC(=O)O)CCCC1	x	-0.8
O=C(CN1CCSCC1)N/N=C/c1ccc(Br)cc1	-0.91	-1.0
O=C(O)CC1(CC(=O)Nc2ccc3c(c2)OCCO3)CCCCC1	x	0.6
Cc1cc(C)n(C(=O)C(C)NC(=O)c2ccccc2)n1 (stereo not given)	2.1	x
N#CCCn1cc(C=NCc2ccccc2)c(-c2cc3ccccc3o2)n1	x	-2.3
Cc1cccc(C(C)C)c1NC(=O)CN1CCc2ccccc21	x	0.7
Cc1ccc(S(=O)(=O)N(CC(=O)NO)Cc2ccccc2)cc1	2.1	-5.0
Cc1nnc(SCc2cc(=O)[nH]c(=S)[nH]2)s1	0.059	-0.1
Oc1ccc(F)c(F)c1	x	1.6
CCOC(=O)Cc1csc(SCC(=O)c2cc(C)n(-c3ccc(C)cc3)c2C)n1	x	1.8
Next structures follow.
SMILES	LANA-nucl inh	BasE inh
Cc1[nH]c2ccc(CN3C(=O)c4ccccc4C3=O)cc2c1C	x	2.0
Cc1ccc(S(=O)(=O)Nc2c(O)c3ccccc3oc2=O)c(C)c1	0.053	3.0
COC(=O)c1ccc(CNC(=O)c2ccc(S(=O)(=O)N(C)C)cc2)cc1	x	-0.3
CCN(CC(=O)Nc1ccccc1OC)C(=O)CC1CCCC1	x	3.2
Cc1cc2c(cc1C)CSC(c1ccc(N(C)CCC#N)cc1)SC2	x	-1.8
Cc1nc2c3c(cccc3n1)C(=O)c1ccccc1-2	-1.1	9.8
CCN(CC)c1ccc(/C=C2\NC(=S)NC2=O)cc1	x	-7.4
CC1(C)CC(=O)C2=C(C1)OC(N)=C(C#N)C21C(=O)c2ccccc2C1=O	1.1	-1.6
CN(C)C(=O)c1cn(-c2ccccc2)nc1-c1ccc(OC(F)F)cc1	x	-2.3
